# Screening results: PubChem, National Center for Advancing Translational Sciences (NCATS)
# Six1-Eya2 inh: qHTS Assay for Inhibitors of the Six1/Eya2 Interaction; Homeobox protein SIX1 (Homo sapiens) + Protein phosphatase EYA2 (Homo sapiens), …; AlphaScreen GST-Six1/His-Eya2 binding, biochemical; hits give low values; control for the full effect not named in the record; activity change, % (concentration not given with the values); actives 0.56% (n = 360,000); AID 651725, 2012; in the data active = activity change below about -65%; inconclusive = about -30% to -65%; inactive = above about -30%; note: % is set by controls: 0 for no effect and ±100 for the full control effect
# Target sequence (O00167 whole entry, looked up): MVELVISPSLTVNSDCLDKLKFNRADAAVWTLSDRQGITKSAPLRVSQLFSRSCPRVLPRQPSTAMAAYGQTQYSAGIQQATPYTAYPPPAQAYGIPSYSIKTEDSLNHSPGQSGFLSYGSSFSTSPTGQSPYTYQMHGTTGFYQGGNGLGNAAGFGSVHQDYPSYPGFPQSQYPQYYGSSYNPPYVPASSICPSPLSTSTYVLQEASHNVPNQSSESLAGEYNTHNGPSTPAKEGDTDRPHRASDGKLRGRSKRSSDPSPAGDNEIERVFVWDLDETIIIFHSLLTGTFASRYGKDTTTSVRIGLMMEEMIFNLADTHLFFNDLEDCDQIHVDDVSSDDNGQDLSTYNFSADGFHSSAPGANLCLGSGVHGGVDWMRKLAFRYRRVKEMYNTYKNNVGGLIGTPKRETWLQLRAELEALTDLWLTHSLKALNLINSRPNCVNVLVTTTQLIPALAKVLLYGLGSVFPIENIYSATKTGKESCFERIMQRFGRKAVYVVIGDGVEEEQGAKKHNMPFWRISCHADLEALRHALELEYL
# Target sequence (Q15475 whole entry, looked up): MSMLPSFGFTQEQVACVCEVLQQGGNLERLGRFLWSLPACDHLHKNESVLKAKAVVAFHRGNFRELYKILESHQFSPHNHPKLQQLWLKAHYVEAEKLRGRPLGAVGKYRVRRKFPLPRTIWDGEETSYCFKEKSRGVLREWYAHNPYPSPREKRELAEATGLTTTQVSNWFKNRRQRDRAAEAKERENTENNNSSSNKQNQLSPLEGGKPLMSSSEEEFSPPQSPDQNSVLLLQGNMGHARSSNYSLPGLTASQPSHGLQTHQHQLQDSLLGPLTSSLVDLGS
#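 Compounds are tested against tagged Six1 and Eya2 proteins bridged by glutathione donor and nickel acceptor beads; after a one-hour incubation at 37 °C without light, AlphaScreen emission is recorded.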
# D2 ag: Beta-Arrestin HTS for Positive Allosteric Modulators of the Human D2 Dopamine Receptor: Agonists; D(2) dopamine receptor (Homo sapiens), P14416; DiscoveRx PathHunter D2 beta-arrestin, luminescence, 90 min; 100% = 57 uM dopamine signal; activation, % (test concentration not listed); actives 0.084% (n = 360,000); in the data active = activation above about 40%; inconclusive = about 15% to 40%; inactive = below about 15%; note: compound concentration not given in the record; the text of the record calls up to 30% inactive
#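 Agonist mode: compounds alone added to overnight-plated D2 PathHunter cells for 90 min at 37 C, with 57 uM final dopamine (EC100) defining full response. Beta-arrestin recruitment detected by chemiluminescent reagent, read after 1 h at ambient temperature.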
# D2 potentiator: Beta-Arrestin HTS for Positive Allosteric Modulators of the Human D2 Dopamine Receptor: Potentiators. D(2) dopamine receptor (Homo sapiens), P14416. actives 0.23% (n = 360,000). AID 624464, 2012. DiscoveRx D2 beta-arrestin cells, luminescence, 90 min; 100% = 57 uM dopamine signal. potentiation, % (test concentration not listed); active = potentiation of 50% or more; inconclusive = 30% to 50%; inactive = 30% or less;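 note: compound concentration not given in the record; tested on top of an EC20 dose of dopamine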
#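 D2 cells co-treated with compound plus 50 nM dopamine (EC20) for 90 min at 37 deg C to detect potentiation. Beta-arrestin recruitment was read as enzyme-fragment luminescence after 1 h at ambient temperature. Full response was set by 57 uM dopamine.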
# TRPV1 potentiator: HTS Assay for Compounds that Act as Potentiators of the Vanilloid Receptor 1. TRPV1-expressing cells, Fluo-8 calcium influx, capsaicin EC20 potentiation; host cell line not named in the record; control for the full effect not named in the record. potentiation, % at 8.33 µM. actives 0.02% (n = 320,000). AID 540277, 2011. Transient receptor potential cation channel subfamily V member 1 (Homo sapiens), Q8NER1; active means potentiation above 80%; inconclusive means 30% to 80%; inactive means below 30%; note: 0% is about no effect
#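 TRPV1-expressing cells were cultured overnight at 35.5C and loaded with Fluo-8 calcium dye for 40 to 90 min at room temperature. After a 10 s baseline, compound was added and calcium influx was read kinetically for 3 min (ex 480/em 520 nm).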
# Sfp PPTase inh: qHTS Assay for Inhibitors of Bacillus subtilis Sfp phosphopantetheinyl transferase (PPTase); AID 1490, 2009; actives 3.5% (n = 310,000); Biochemical Sfp PPTase activity, qHTS; 4'-phosphopantetheinyl transferase ffp (Bacillus subtilis), Q9F4F7; Potency, µM, for the others: max response, negative = inhibition, usual class: inhibitors; active = well fitted inhibition curve with a large enough effect; inconclusive = small, poorly fitted or top-dose-only effect, or another doubt; inactive = no such curve, though single readings can be large or run the other way;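 note: the enzyme is Sfp with the accession as filed and its product quenches rhodamine fluorescence; potency is the fitted concentration of half-maximal effect; 0% = enzyme reaction without inhibitor and -100% = no enzyme wells; top concentration of the series not given in the record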
#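 Compounds were incubated with enzyme (final 15 nM) for 15 min at room temperature before substrate addition started the reaction. Fluorescence at 525 nm excitation, 598 nm emission was recorded immediately and after 30 minutes.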
# PINK1 expr mod: A Quantitative High throughput Screen to Identify Chemical Modulators of PINK1 Expression. actives 0.2% (n = 410,000). Potency, µM (titrated, usually from 76.6 µM), without a hit: at the top dose activation (PINK1 increase), most hits filed as activators. PINK1 immunofluorescence, high-content cytometry, 24 h; active = well fitted activation curve with a large enough effect; inconclusive = small, poorly fitted or top-dose-only effect; inactive = flat fitted curve, though single readings scatter; cell line not stated here;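 note: potency is the fitted concentration of half-maximal effect; % of control where 0% means no effect; nearly all actives have a fitted effect of over 65% in size; a mitochondrial uncoupler was the plate control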
#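 Cells are seeded, rested 12 hours, then given compound at five concentrations or DMSO for 24 hours. After fixation, blocking and antibody staining, PINK1 amount and mitochondrial localization are scored; CCCP serves as control.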
# CtBP-E1A blk: qHTS Assay for Inhibitors of the CtBP/E1A Interaction | AlphaScreen GST-E1A/His-CtBP binding, 1536-well; hits give low values; control for the full effect not named in the record | CtBP / adenovirus E1A interaction (AlphaScreen) | actives 0.49% (n = 340,000) | activity change, % (test concentration not listed); in the data active means activity change below about -65%; inconclusive means about -30% to -65%; inactive means above about -30%; note: % is set by controls: 0 for no effect and ±100 for the full control effect; compound concentration not given in the record
#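 Protein mix (5X: 125 nM each GST-E1A, His-CtBP) was incubated with pinned compound 2 h at 37 deg C in dark, in 50 mM Tris pH 8.0 buffer with 300 mM NaCl. Glutathione donor and nickel acceptor beads followed; AlphaScreen signal read after 1 h.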
# An asterisk follows results filed as active; ? = inconclusive; . = not tested or not shown; & = joins results of further samples; [ ] = dose if it differs, or a comment. Outcome played no part in choosing rows. About 3.7% of those tested had a hit in this group.
smiles	Six1-Eya2 inh	D2 ag	D2 potentiator	TRPV1 potentiator	Sfp PPTase inh	PINK1 expr mod	CtBP-E1A blk
O=C(COc1ccc(Br)cc1)N/N=C1\SCC(=O)N1c1ccc(F)cc1	4	-3.9	3	-2	0%	-0.2%	-10
COc1ccccc1NS(=O)(=O)c1cccc(N2CC(O)=C(c3ccccc3)C2=N)c1	-7	-3.4	-8	7	15%	1.5%	8
O=C(c1ccccc1)c1ccc(Cn2cc(CCCO)nn2)cc1	-11	-0.7	-12	-10	17%	0.0%	3
CCC/C(O)=C1\C(=O)CC(C)(C)CC1=Nc1ccc(OC)cc1	0	-1.0	-5	-2	18%	5.6%	-8
Cc1nn(-c2ccccc2)c(N2CCCC2)c1/C=N/Nc1ccc(S(N)(=O)=O)cc1[N+](=O)[O-]	?	-4.0	-22	-9	-9%	1.3%	-12
CCC(C)NCCOc1ccccc1C (centres undefined)	-4	-2.6	-14	6	56µM*	-0.2%	13
Cc1c(C(=O)COC(C)(C)C)[nH]c2ccccc12	1	7.0	-7	-14	-3%	0.5%	1
Cc1cccc(CCNC(=O)C2CCN(S(=O)(=O)c3cccc4nsnc34)CC2)c1	-1	-1.3	-10	2	17%	.	9
O=C(Nc1ccccc1C(=O)NC(Cc1ccccc1)C(=O)O)c1ccco1 (centres undefined)	9	-6.2	-2	3	14%	1.9%	.
Cc1ccc(C)c(NC(=O)C2CC(O)CN2C(=O)Oc2ccccc2)c1 (centres undefined)	4	-6.9	-3	14	21%	0.6%	17
O=S1(=O)CC(N2CC=CC2)CN1C1CCCCC1 (centres undefined)	2	-2.0	-7	.	.	1.1%	2
Cc1c(OCC(=O)NCC(O)c2ccccc2)ccc2c3c(c(=O)oc12)CCCC3 (centres undefined)	-9	-1.5	-12	13	6%	0.9%	.

# Other entries follow.
smiles	Six1-Eya2 inh	D2 ag	D2 potentiator	TRPV1 potentiator	Sfp PPTase inh	PINK1 expr mod	CtBP-E1A blk
c1cc(-c2cccs2)nc(-c2cccs2)c1	2	0.2	-4	-5	-3%	0.4%	7
Cc1sc2ncnc(SCC(=O)NC(C)C(C)C)c2c1C (centres undefined)	4	-1.0	-2	-4	13%	1.7%	.
NCc1cccc(-n2cccn2)c1	-1	0.0	-4	5	6%	0.6%	3
CC(C)C(=O)N1N=C(c2ccc(NS(C)(=O)=O)cc2)CC1c1cccs1 (centres undefined)	-7	-5.4	-7	2	-2%	1.9%	-24
COc1ccccc1CNC(=O)CCNC(=O)Cn1ccc2ccccc2c1=O	0	-2.7	-5	.	5%	0.1%[38.3 µM]	-1
COc1ccccc1C(=O)Nc1sc2c(c1C(N)=O)CCCC2	-21	2.9	2	-1	15%	4.3%	-15
CC(=O)NCCNC(=O)c1ccc(Cn2c(=O)[nH]c3ccsc3c2=O)cc1	-8	-4.9	-3	4	-2%	3.3%	5
CCOc1ccc(NC(=O)Cn2nnc3c(cnn3-c3ccc(F)cc3)c2=O)cc1	-5	-2.8	-11	-12	13%	1.9%	.
CN1CCN(c2ccc(C(CC(N)=O)NC(=O)c3ccccc3)cc2[N+](=O)[O-])CC1 (centres undefined)	0	-1.7	-1	10	13%	0.3%	11
O=c1[nH]c2ccccc2c(O)c1O	-11	6.0	?	-8	0.32µM*	-0.3%	-10
NC(=O)c1ccc[n+](CC(=O)Nc2ccccc2C(=O)O)c1	4	-5.1	1	-20	-1%	1.9%	-12
COc1ccc(S(=O)(=O)N(C)C[C@H]2Oc3c(NS(=O)(=O)c4ccc(F)cc4)cccc3C(=O)N([C@H](C)CO)C[C@@H]2C)cc1	-1	-1.2	-5	.	.	-0.3%	-5

# Single records, from the list above.
# NCc1cccc(-n2cccn2)c1 is listed as Six1-Eya2 inh: -1; D2 ag: 0.0; D2 potentiator: -4; TRPV1 potentiator: 5; Sfp PPTase inh: 6%; PINK1 expr mod: 0.6%; CtBP-E1A blk: 3
# CC(C)C(=O)N1N=C(c2ccc(NS(C)(=O)=O)cc2)CC1c1cccs1 (centres undefined) is listed as Six1-Eya2 inh: -7; D2 ag: -5.4; D2 potentiator: -7; TRPV1 potentiator: 2; Sfp PPTase inh: -2%; PINK1 expr mod: 1.9%; CtBP-E1A blk: -24

# Following part.
smiles	Six1-Eya2 inh	D2 ag	D2 potentiator	TRPV1 potentiator	Sfp PPTase inh	PINK1 expr mod	CtBP-E1A blk
CC(C)C(NS(=O)(=O)c1cccs1)C(=O)Nc1nc(C(C)(C)C)cs1 (centres undefined)	-1	-1.1	6	1	4%	2.9%[38.3 µM]	1
CC(=O)Nc1nnc(-c2ccco2)o1	2	-3.3	2	2	-23%	2.1%	0
CCN(CC)C(=O)CC(c1ccc(F)cc1)c1ccc(OC)cc1 (centres undefined)	7	-0.1	-14	-11	14%	-0.9%	-5
Cc1ccc(S(=O)(=O)N2CCN(C(=O)CN3C(=O)NC(C)(c4ccc5ccccc5c4)C3=O)CC2)cc1 (centres undefined)	-4	-2.4	-3	.	.	0.2%	1
Cc1cc(-c2nnc(SCC(=O)Nc3ccc(S(N)(=O)=O)cc3)n2N)n[nH]1	1	1.3	-3	5	-9%	-1.5%	-17
COc1cc(S(=O)(=O)N2CCC(O)(c3cccc(C(F)(F)F)c3)CC2)ccc1-n1cnnn1	-2	-1.5	1	-22	18%	4.7%[38.3 µM]	6
O=C(NCc1ccco1)c1ccc(Cl)cc1[N+](=O)[O-]	-4	-2.3	-1	3	17%	0.2%	.
COc1ccc(N=C2S/C(=C\c3ccc(OC(C)C(=O)O)c(OC)c3)C(=O)N2CCc2c[nH]c3ccccc23)cc1 (centres undefined)	-24	3.7	0	-3	?	-1.7%	-10
Cc1cc(C)c2c(c1)C1C=CCC1C(c1ccc(S(=O)(=O)N3CCOCC3)cc1)N2 (centres undefined)	-3	1.8	-9	-15	40µM*	.	16
COc1cccc(-c2nn(-c3ccccc3)cc2C(=O)n2nnc3ccccc32)c1	2	-3.6	-4	-3	-6%	-1.5%	-4
CCOC(=O)C1CCN(Cc2coc3c(Cl)cc(Cl)cc3c2=O)CC1	6	-1.7	-6	6	?	-0.4%[38.3 µM]	2
CN(CC1CCOCC1)C(=O)CC1C(=O)NCCN1Cc1ccc(F)c(F)c1 (centres undefined)	3	-2.8	-18	1	-1%	2.7%	15

# Additional structures.
smiles	Six1-Eya2 inh	D2 ag	D2 potentiator	TRPV1 potentiator	Sfp PPTase inh	PINK1 expr mod	CtBP-E1A blk
Cc1c(C(=O)NN)nn(-c2ccc(F)cc2)c(=O)c1C#N	-12	-0.2	-14	25	6%	0.9%	-6
O=C(c1cc([N+](=O)[O-])ccc1N1CCOCC1)N1CCCCC1	5	-1.5	-17	6	-3%	-1.7%	8
Cc1ccc(Nc2nc(Cl)nc3ncn(C)c23)c(C)c1	16	-0.9	-26	.	.	-1.3%	-9
CC(=O)Nc1ccc(NC(=O)CSc2nnc(CC(C)O)n2-c2ccccc2)cc1 (centres undefined)	2	-5.0	-3	13	9%	0.7%	0
COc1ccc(CNC(=O)CSc2nc3ccccc3n2C(C)=O)cc1	0	5.5	-2	-7	10%	0.2%	.
C/C(=N\NC(=O)c1nnn(-c2nonc2N)c1CN(C)c1ccccc1)c1ccccn1	-91*	7.6	4	-9	10%	2.6%	.
Cc1cc(=O)oc2cc(Nc3ccccc3)ccc12	20	-0.8	-13	-2	-9%	4.1%	11
O=C1CCCC2=C1C(c1cccs1)n1nc(SCc3ccc(C(=O)O)cc3)nc1N2 (centres undefined)	3	-0.8	2	1	4%	0.7%	6
CC(O)CNc1nc2c(c(=O)n(Cc3ccc(Cl)cc3)c(=O)n2C)n1C (centres undefined)	-6	3.4	2	-7	14%	1.2%&1.0%	-7
COc1ccc(N(CC(=O)Nc2ccc(C)cn2)S(=O)(=O)c2c(C)noc2C)cc1	0	-1.0	-12	-7	-1%	.	-3
O=C(c1cccc(S(=O)(=O)Nc2ccccc2Cl)c1)N1CCN(C(=O)c2ccco2)CC1	-3	-4.5	-3	4	21%	1.0%	-6
COc1ccc(C(C)=O)cc1CSc1nnc(C)s1	0	-2.3	-6	9	4%	-1.8%[38.3 µM]	4

# Sorted by length of the SMILES (falling): part of the list above.
smiles	Six1-Eya2 inh	D2 ag	D2 potentiator	TRPV1 potentiator	Sfp PPTase inh	PINK1 expr mod	CtBP-E1A blk
CN1CCN(c2ccc(C(CC(N)=O)NC(=O)c3ccccc3)cc2[N+](=O)[O-])CC1 (centres undefined)	0	-1.7	-1	10	13%	0.3%	11
Cc1c(OCC(=O)NCC(O)c2ccccc2)ccc2c3c(c(=O)oc12)CCCC3 (centres undefined)	-9	-1.5	-12	13	6%	0.9%	.
O=C(COc1ccc(Br)cc1)N/N=C1\SCC(=O)N1c1ccc(F)cc1	4	-3.9	3	-2	0%	-0.2%	-10

# Next records.
smiles	Six1-Eya2 inh	D2 ag	D2 potentiator	TRPV1 potentiator	Sfp PPTase inh	PINK1 expr mod	CtBP-E1A blk
O=C1CSC(=Nc2ccc(Cl)cc2)N1Cc1ccco1	-6	0.7	-2	8	?	1.1%	6
Cn1c(=O)c2c(O)c(C=NCc3ccccc3)c(=O)n(C)c2n(C)c1=O	8	-2.7	1	8	14%	-1.5%	8
Cc1cc(=O)n2nc(N3CCCC(C(=O)NCc4cccc(Br)c4)C3)sc2n1 (centres undefined)	-2	-9.0	-9	-11	12%	1.7%	-6
CC1CCc2sc(C(=O)NCC(c3ccco3)N3CCCCC3)cc2C1 (centres undefined)	-8	-2.6	-3	-5	.	?	-4
CCC(=O)NCCCCNC(=O)CC	2	-1.6	2	-3	-2%	-1.7%	-8
Cc1ccccc1C(=O)NNC(=O)CCc1ccccc1	9	-4.1	2	13	16%	1.1%	.
CCCNC(=O)CCn1c(=S)oc2ccccc21	4	-3.6	5	8	10%	0.2%	8
N#C/C(=C\C=C\c1ccccc1)C(=O)NCc1cccnc1	2	-4.9	-23	-16	4%	-0.6%	6
